Vaccinia Venus – qHTS for Stage-Specific Inhibitors of Vaccinia Orthopoxvirus: Venus Reporter Primary qHTS; Vaccinia virus Venus reporter expression, fluorescence; Potency, µM (series often up to 36.5 µM), without a hit: at the highest dose activity change, negative = inhibition, hits mostly inhibitors; actives 0.46% (n = 330,000); active means well fitted inhibition curve with a large enough effect; inconclusive means small, poorly fitted or top-dose-only effect; inactive means no such curve, though single readings can be large or run the other way; tested in A549 cells; further: nearly all actives have a fitted effect of over 30% in size; inactives centre near -10
Vaccinia mCherry – qHTS for Stage-Specific Inhibitors of Vaccinia Orthopoxvirus: mCherry Reporter Primary qHTS; actives 0.63% (n = 310,000); Potency, µM (top dose mostly 36.5 µM), inactives show at the top dose activity change, negative = inhibition, actives largely listed as inhibitors; Vaccinia virus mCherry reporter infection, fluorescence; about a quarter of the inactives have no number; active = well fitted inhibition curve with a large enough effect; inconclusive = small, poorly fitted or top-dose-only effect; inactive = no such curve, though single readings can be large or run the other way; tested in A549 cells; further: nearly all actives have a fitted effect of over 35% in size; inactives centre near -10
Active calls of the source: *; i = inactive; ? = inconclusive; . = not tested or not shown; [ ] = dose if it differs, or a comment. On the % scale 0 is the no-effect control and ±100 the full control effect; potency means the concentration at half of the fitted maximal effect.

The opening 2 entries as a preview:
SMILES	Vaccinia Venus	Vaccinia mCherry
COc1ccccc1Oc1ccnc2cc(Cl)ccc12	2%	26%
O=C(NCc1ccco1)c1ccc(CS(=O)(=O)Cc2ccc(F)cc2)o1	-17%	-18%

The whole of this part, from the start:
SMILES	Vaccinia Venus	Vaccinia mCherry
COc1ccccc1Oc1ccnc2cc(Cl)ccc12	2%	26%
O=C(NCc1ccco1)c1ccc(CS(=O)(=O)Cc2ccc(F)cc2)o1	-17%	-18%
COc1ccc(CNc2cccnc2)c(OC)c1OC	-6%	-1%
Cc1ccsc1/C=N/NC(=O)Cc1ccc([N+](=O)[O-])cc1	-16%	-14%
O=[N+]([O-])c1ccc(NCCCO)c(S(=O)(=O)N2CCOCC2)c1	-10%	i
Cc1ccc2nc(NC(=O)CSCC(=O)OCC(=O)c3ccccc3)sc2c1	-4%	i
COc1ccc(C2(O)CCN(CC(=O)Nc3nccs3)CC2)c(OC)c1	-2%	-15%
CC1CCN(S(=O)(=O)c2cccc(C(=O)N3CCN(c4ccc(F)cc4)CC3)c2)CC1	?	?
CCCCC(CC)CNC(=O)C(=O)C1C(=O)Nc2ccccc21 (configuration not stated)	-7%	?
CN(CC(=O)O)c1ccc(C=O)cc1	-21%	-5%
COCCNC(=O)c1onc(CSc2ccccc2C)c1C(=O)O	-12%	?
Cc1ccnc(NC(=O)CC(NC(=O)c2ccccc2Cl)c2ccccc2)c1 (configuration not stated)	-12%	-15%

Reprinted from the listing (three entries):
SMILES	Vaccinia Venus	Vaccinia mCherry
CN(CC(=O)O)c1ccc(C=O)cc1	-21%	-5%
COCCNC(=O)c1onc(CSc2ccccc2C)c1C(=O)O	-12%	?
Cc1ccnc(NC(=O)CC(NC(=O)c2ccccc2Cl)c2ccccc2)c1 (configuration not stated)	-12%	-15%

Additional structures.
SMILES	Vaccinia Venus	Vaccinia mCherry
COC(=O)[C@]12CCCCC=C1N(Cc1ccc3c(c1)OCO3)C(=O)[C@H](CC(=O)NCc1cccc3ccccc13)C2	?	?
CCCC(C(=O)Nc1nccs1)c1ccccc1 (configuration not stated)	4%	.
O=C(Cc1ccccc1)Nc1ccccc1Sc1ccccc1	-7%	i
O=C(c1oc(=O)c2ccccc2c1-c1ccccc1)N1CCOCC1	-16%	i
Nc1nnnn1/N=C/c1ccccc1O	-12%	-18%
COc1cccc(C2/C(=C(/O)c3ccc(C)cc3)C(=O)C(=O)N2Cc2ccco2)c1 (configuration not stated)	-1%	i
COc1ccc(S(=O)(=O)N2CC(C(=O)O)Oc3ccc(CC(=O)O)cc32)cc1 (configuration not stated)	-14%	-14%
O=C(NCCCN1CCCC1=O)Nc1ccc(Cl)cc1	-3%	i
Cc1cc(C(=O)CN2C(=O)NC3(CCCCC3)C2=O)c(C)n1-c1ccc2c(c1)OCO2	-19%	-27%
CCn1c(CNC(=O)c2ccc(OC)cc2)nnc1SCC(=O)Nc1ccc(F)cc1	-5%	-3%
O=[N+]([O-])c1cccc2ccc(/C=C/c3ccc(Cl)cc3)nc12	-9%	-10%
Cc1csc(=O)n1CCC(=O)OCC(=O)Nc1ccc(N2CCOCC2)cc1	-1%	i
CSC1=NCCN1CCOc1ccccc1	3%	-1%
CN1OC[C@@H]2CN(C(=S)NCCc3ccccc3)[C@H](c3ccc(-n4ccnc4)cc3)C[C@@H]21	3%	48%[activator]
COc1ccccc1NC(=O)COc1coc(CN2CCN(c3ccccc3)CC2)cc1=O	-14%	-15%
CCOC(=O)/C=C/c1cnn(-c2ccccc2)c1	-6%	-10%
CCC(C)NC(=O)Cn1c(=O)n(-c2ccc(C)cc2)c(=O)c2ccccc21 (configuration not stated)	-5%	4%
CC(=O)Nc1ccc(/C=C(\C#N)C(N)=O)cc1	-11%[7.34 µM]	i[7.34 µM]
Cn1c(NC(=O)C2CC2)cc(=O)n(C)c1=O	-14%	-14%
CCCCn1nnnc1C(c1ccccc1)N1CCN(c2ncccn2)CC1 (configuration not stated)	-2%	8%
Cc1c(Cl)cnc(NC(=O)COC(=O)c2cccc(S(=O)(=O)N3c4ccccc4CC3C)c2)c1Cl (configuration not stated)	1%	-16%
CCCC(=O)N1CCN(c2ccc(NC(=O)c3sc4ccccc4c3Cl)cc2)CC1	-1%	i
COc1ccc(OC)c2c(/C=C/c3c(C)[nH]c4ccccc34)ccnc12	-22%	13µM*
Cc1ccc(NC(=O)C2CCN(S(=O)(=O)c3cccc(C(F)(F)F)c3)CC2)nc1	-19%	-2%
COc1ccc(C(C(=O)NC2CCCC2)N(C(=O)c2ccco2)c2ccccc2C(C)=O)cc1OC (configuration not stated)	-4%	-1%
O=Nc1c(O)n(Cc2cccc(C(F)(F)F)c2)c2ccccc12	?	-28%
CC(=O)N(CN1C(=O)c2ccccc2C1=O)c1ccc2c(c1)oc1ccccc12	-7%	-9%
Cc1ccc(NC(=O)/C(=C/C=C/c2ccccc2)NC(=O)c2ccccc2)cc1	2%	-12%
O=C(Nc1ccc2c(c1)CCC2)c1cccc(S(=O)(=O)Nc2ccccc2Cl)c1	-17%	i
O=C1NC(=O)c2cc(Br)cc3cccc1c23	-6%	3%
Nc1nonc1C(=O)NCCNC(=O)c1ccc(Cl)c(Cl)c1	-1%	-2%
CC1(C)c2ccccc2N2CC(=O)N(CC(N)=O)C21C (configuration not stated)	211%[activator]	203%[activator]
O=C(NN1CCOCC1)c1ccccc1NS(=O)(=O)c1ccc(F)cc1F	-7%	-16%
CCn1c(-c2cccc(OC)c2)nc2cc(NC(C)=O)cc(C(=O)N(C)CC3COCCO3)c21 (configuration not stated)	0%	-3%
Cc1cnc(NC(=O)CSc2nnc(C)n2N)s1	?	?
CC(NC(=S)Nc1ccc(S(N)(=O)=O)cc1)c1ccc2c(c1)OCO2 (configuration not stated)	0%	-10%
CCN(c1ccccc1)S(=O)(=O)c1cc(C(=O)Nc2cccc(Cl)c2)ccc1F	?	?
CCOC(=O)C1=CCN(S(=O)(=O)c2ccc(C)cc2)C1c1cccc(F)c1 (configuration not stated)	-6%	30%
Cc1c(C(=O)NCc2ccc(C(F)(F)F)cc2)sc(=O)n1Cc1ccc(S(=O)(=O)N(C)C)cc1	-22%	-7%
O=C(NC1CCN(C(=O)Nc2ccccc2Cl)CC1)c1cccc(F)c1	-6%	-7%
CCOC1=C2CN(S(=O)(=O)c3ccc(Cl)cc3)[C@H](c3ccccc3)C[C@@H]2N(S(=O)(=O)c2ccc(C)cc2)[C@H](c2ccccc2)C1	-16%	12%
COC(=O)c1nnn(CC(=O)Nc2c(C)cccc2C)c1N	6%	2%
COC(=O)CCC(=O)OC1(C)C(=O)C=C2C=C(C3CC3)N(Cc3ccco3)C=C2C1=O (configuration not stated)	-10%	-14%
COc1ccc(-c2cc3nc(NCc4ccc(NC(C)=O)cc4)n(C)c(=O)c3s2)cc1OC	-10%	29%
CC1CCCN(c2sc(S(C)(=O)=O)nc2S(=O)(=O)c2ccc(Cl)cc2)C1 (configuration not stated)	-14%[7.34 µM]	i[7.34 µM]
COc1ccc(OCc2nnc(SCC(=O)N(C)Cc3ccccc3)n2N)cc1	1%	-1%
COc1ccc(C(=O)NCc2nnc(SCC(=O)N3CCCCC3)o2)cc1OC	-2%	-8%
CC(=O)c1cccc(NC(=O)CCc2nnc3ccc(N4CCOCC4)nn23)c1	-12%	-13%

Complete entries as entered above. Order of values: Vaccinia Venus, Vaccinia mCherry
CC(=O)c1cccc(NC(=O)CCc2nnc3ccc(N4CCOCC4)nn23)c1 is listed with -12%, -13%
CC1CCCN(c2sc(S(C)(=O)=O)nc2S(=O)(=O)c2ccc(Cl)cc2)C1 (configuration not stated) is listed with -14%[7.34 µM], i[7.34 µM]
COc1ccc(-c2cc3nc(NCc4ccc(NC(C)=O)cc4)n(C)c(=O)c3s2)cc1OC is listed with -10%, 29%

Four entries from above in a different format.
SMILES | Vaccinia Venus | Vaccinia mCherry
CCOC1=C2CN(S(=O)(=O)c3ccc(Cl)cc3)[C@H](c3ccccc3)C[C@@H]2N(S(=O)(=O)c2ccc(C)cc2)[C@H](c2ccccc2)C1 | -16% | 12%
COc1ccc(-c2cc3nc(NCc4ccc(NC(C)=O)cc4)n(C)c(=O)c3s2)cc1OC | -10% | 29%
COC(=O)c1nnn(CC(=O)Nc2c(C)cccc2C)c1N | 6% | 2%
O=C(NC1CCN(C(=O)Nc2ccccc2Cl)CC1)c1cccc(F)c1 | -6% | -7%

(next part)
SMILES	Vaccinia Venus	Vaccinia mCherry
O=[N+]([O-])c1c(NCCCO)cc(SCc2ccco2)c2nonc12	-16%	-4%
CCOC(=O)c1ccccc1NC(=O)c1cc2ccc3cccnc3c2[nH]1	-18%	-12%
O=C(COC(=O)c1cccc(S(=O)(=O)N2CCCC2)c1)Nc1ccc(Cl)cc1	-3%	i
Cc1ccc2c(c1)CNc1ccccc1O2	-22%	.
O=C(Nc1ccccc1Cc1ccccc1)c1ccccc1NS(=O)(=O)c1ccc(Cl)s1	?	?
O=C(Nc1ccccc1)C1CCN(C(=O)c2ccccc2)CC1	-7%	-15%
Cc1onc(-c2ccccc2Cl)c1C(=O)Nc1ccc(-c2nnc3n2CCCCC3)cc1	-14%	-19%
CCCCS(=O)(=O)Nc1ccc2ncn(C)c(=O)c2c1	-13%	i
O=C(Oc1coc(CSc2ncccn2)cc1=O)c1ccc(Br)o1	-1%	-23%
NC(Cc1ccc(O)c(O)c1)C(=O)O (configuration not stated)	0%	-15%
NC(=O)CC(NC(=O)Cc1ccc(Br)cc1)c1ccc(NCCc2ccc(Cl)cc2)c([N+](=O)[O-])c1 (configuration not stated)	-18%	-11%
COCCCN1C(=O)C(CC(=O)NCC2CCCCC2)CC(C(=O)N(C)C)=C1C (configuration not stated)	-9%	i
CC(C)(C)NC(=O)CSc1nc(O)cc(=O)n1-c1ccccc1	-24%	-12%
O=C(NC1CCN(C(=O)NCc2ccccc2)CC1)c1cccc(F)c1	-23%	42%[activator]
FC(F)(F)c1nc2ccccc2nc1N/N=C/c1ccc(Cl)cc1	-16%	.
CCN(CC)CCN(Cc1cc2cc(C)ccc2[nH]c1=O)C(=S)Nc1ccccc1	-4%	-4%
Nc1nc(Br)c2c(F)cccc2c1-c1ccccc1	-20%	?
Cn1c(COc2ccc(F)cc2)nc2ccccc21	1%	-3%
COC(=O)c1ccccc1NC(=O)Nc1ccc2c(c1)OCO2	-12%	-11%
O=C(NCc1cccnc1)C(=O)NCC1OCCCN1S(=O)(=O)c1cc(F)ccc1F (configuration not stated)	-1%	-11%
O=C1C(C=NCc2ccccn2)=C(O)c2ccccc21	-4%	-12%
C[C@H](CO)N1C[C@H](C)[C@@H](CN(C)S(=O)(=O)c2cccs2)Oc2ccc(NS(=O)(=O)c3ccccc3)cc2C1=O	?	?
CC1(C(=O)NC2CCCC2)CCC(=O)N1CCOc1ccccc1 (configuration not stated)	-1%	17%
COC(=O)c1cn(CC(C)n2c(=O)c3ccccc3n2Cc2cc(C(C)C)no2)nn1 (configuration not stated)	5%	-17%
Cc1ccc(C)c(NC(=O)COC(=O)Cc2ccsc2)c1	-12%	-3%
CC1CCN(C(=O)CCNC(=O)Cn2cnc3sc4c(c3c2=O)CCCC4)CC1	-19%	-19%
C=CCSC1=C(C#N)C(c2ccccc2C)CC(=O)N1 (configuration not stated)	-8%	.
COc1cccc(CSc2nc3ccccc3cc2C=O)c1	?	.
Cc1ccc(NC(=O)C2CCC(CNS(=O)(=O)c3cccc4nsnc34)CC2)c(Cl)c1 (configuration not stated)	-2%	-22%
CCCS(=O)(=O)NC(=O)C1(C)CCN(C(=O)c2ccc(OC)c(F)c2)C1 (configuration not stated)	3%	1%
CCN(CC)S(=O)(=O)c1ccc(N2CCCC2)c(NC(=O)Cc2cc(OC)c(OC)c(OC)c2)c1	-8%	3%
Cn1c(=N)n(CC(=O)c2ccccc2)c2ccccc21	-1%	?
O=[N+]([O-])c1ccc(Sc2ncccn2)c([N+](=O)[O-])c1	?	?
O=C1CC(c2ccccc2)CC(O)=C1C=Nc1cccc(Cl)c1 (configuration not stated)	-12%	-10%
CN(C)CCNC(=O)/C(=C/c1ccc(-c2cccc(Cl)c2)o1)NC(=O)c1ccccc1	-6%	-23%
Cc1ccc(Cc2c(C)nc3nc(SCC(=O)NCCCN4CCOCC4)nn3c2C)cc1	9%	i
CCN(CC)CCNC(=O)CCc1nn(C)c(=O)c2ccccc12	-3%	i
CCO[C@H]1OC(C(=O)NC2CC2)=C[C@@H](C2CC2)[C@@H]1CCCO	-6%	i
CC(NC(=O)CSCc1ccc(Br)cc1)c1ccccc1 (configuration not stated)	-21%	-6%
Nc1n[nH]c(-c2ccccc2)c1-c1ccccc1	-15%	-15%
COc1cc(NC(=O)CSc2nnc3c4ccccc4n(C)c3n2)cc(OC)c1OC	-5%	?
CCOC(=O)C(C(=O)OCC)N(C#N)c1nc(C)cc(C)n1	-2%	-12%
COc1ccc(CCNC(=O)c2ccc3c(Cl)c4c(nc3c2)CCCC4)c(OC)c1	-11%	-16%
NC(=S)NNC(=O)/C(=C/c1ccc(Br)cc1)NC(=O)c1ccccc1	-5%	-17%
COc1cc(NC(=O)c2nccnc2C(=O)O)cc(OC)c1	-3%	i
COc1cccc(NC(=O)CSc2nc3cc(OC)c(OC)cc3c3nc(-c4ccccc4)nn23)c1	0%	-16%
C/C1=C\CCC2C(/C=C(\C)CC1)OC(=O)C2CN1CCCCC1 (configuration not stated)	-16%	?
O=C(CSc1n[nH]c(=O)[nH]c1=O)c1ccc(Cl)cc1Cl	-3%	-7%
CC(NS(=O)(=O)c1ccc(Cl)cc1)C(c1cccs1)N1CCN(C)CC1 (configuration not stated)	-19%	-14%
CN(C)c1cccc(C(=O)Nc2ccc(-c3nc4ccccc4s3)cc2)c1	-21%	-9%
